High-throughput results (PubChem)
ALR H2O2 inh = inhibitors of human ALR sulfhydryl oxidase, primary screen, biochemical, H2O2 detection, HRP-luminol luminescence, single point; 290,000 tested, 3.8% active; AID 485317, 2010; purified ALR, DTT oxidation; FAD-linked sulfhydryl oxidase ALR (Homo sapiens), P55789; inhibition, % (concentration not given with the values);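 active = mean and each replicate at 75% or more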;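 note: stock transfer was 7.5 nL into about 7.5 µL; 0% = neutral wells and 100% = wells with inactivated enzyme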
Target sequence (P55789 whole entry, looked up): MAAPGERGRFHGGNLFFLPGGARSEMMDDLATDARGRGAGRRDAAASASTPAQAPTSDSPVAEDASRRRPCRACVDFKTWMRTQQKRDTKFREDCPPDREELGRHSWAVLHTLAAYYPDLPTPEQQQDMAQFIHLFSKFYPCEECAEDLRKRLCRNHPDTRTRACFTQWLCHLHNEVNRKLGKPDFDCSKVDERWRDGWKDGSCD
Ecoli growth = E. coli growth inhibition, primary screen, OD600; 330,000 tested, 0.21% active; AID 1053175, 2014; OD600 absorbance (no concentration beside the values); Escherichia coli growth, 23 h; stronger effect = lower value;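 active = OD600 absorbance below the run mean of sample wells minus 3.6 SD, in any replicate, cut at about 0.56 in these data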;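 note: stock transfer was 300 nL into about 60 µL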
B2AR ag = beta2AR agonists driving receptor internalization, primary screen, cell-based, FAP fluorogen, flow cytometry | response, % (no concentration beside the values) | AID 504454, 2011 | Am2.2-beta2AR cells; reference of the scale not given here | Beta-2 adrenergic receptor (Homo sapiens), P07550 | 340,000 tested, 0.43% active;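 active = response above a set limit, near 3 SD of response in nonfluorescent compounds, cut at about 42% in these data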;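 note: stock transfer was 100 nL into about 11 µL; a reference agonist was the positive control; negative values mostly stem from fluorescent compounds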
HNF4A DNA FP = change in binding of human HNF4A to DNA, primary screen, biochemical, fluorescence polarization, FITC-DNA | Hepatocyte nuclear factor 4-alpha (Homo sapiens), P41235 | 1 h | activity change, % at 10 µM | 360,000 tested, 0.3% active; in the data active = activity change above about 30%, passing the limit was not always enough;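 note: controls were the assay level and a saturating level of protein; the project sought stronger binding though the title names inhibitors; some compounds called inactive have numbers as strong as hits; positive values seem to mean higher polarization but the record does not say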
Target sequence (P41235 whole entry, looked up): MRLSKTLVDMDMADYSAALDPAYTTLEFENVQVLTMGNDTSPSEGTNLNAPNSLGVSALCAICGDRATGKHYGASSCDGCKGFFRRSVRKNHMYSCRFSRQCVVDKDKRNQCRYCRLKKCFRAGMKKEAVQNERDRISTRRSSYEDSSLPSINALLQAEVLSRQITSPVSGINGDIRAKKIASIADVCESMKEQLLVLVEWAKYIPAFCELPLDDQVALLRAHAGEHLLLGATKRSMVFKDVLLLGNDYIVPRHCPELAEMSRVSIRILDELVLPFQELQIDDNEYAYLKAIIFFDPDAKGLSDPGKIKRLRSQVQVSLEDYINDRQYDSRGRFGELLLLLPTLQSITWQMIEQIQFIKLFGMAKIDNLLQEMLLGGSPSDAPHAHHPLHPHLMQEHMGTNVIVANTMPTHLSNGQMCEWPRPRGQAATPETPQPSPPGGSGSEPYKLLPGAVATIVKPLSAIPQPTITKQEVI
UCH37 inh = inhibitors of human UCH37 deubiquitinase, primary screen, biochemical, Ub-AMC cleavage, fluorescence; Ubiquitin carboxyl-terminal hydrolase isozyme L5 (Homo sapiens), Q9Y5K5; purified proteasome/UCH37; inhibition, % (test concentration not listed); 330,000 tested, 0.33% active; AID 588478, 2011;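 active = mean of two replicates above 20%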;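 note: 0% = compound-free wells with enzyme and 100% = wells lacking proteasome; stock transfer was 100 nL into about 20 µL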
Target sequence (Q9Y5K5 whole entry, looked up): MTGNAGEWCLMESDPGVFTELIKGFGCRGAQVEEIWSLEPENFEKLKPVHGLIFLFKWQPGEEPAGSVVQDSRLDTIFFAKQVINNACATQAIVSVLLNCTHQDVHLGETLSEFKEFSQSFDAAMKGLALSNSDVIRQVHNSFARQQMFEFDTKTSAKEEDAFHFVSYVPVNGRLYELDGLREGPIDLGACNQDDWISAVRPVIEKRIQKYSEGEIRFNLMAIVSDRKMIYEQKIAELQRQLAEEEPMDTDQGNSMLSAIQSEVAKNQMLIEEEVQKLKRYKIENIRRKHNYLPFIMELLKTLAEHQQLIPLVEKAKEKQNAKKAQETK
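Material: human UCH37 enzyme supplied as purified proteasome complex / Amount: 0.15 nM proteasome as dispensed / Buffer or medium: pH 7.4 Tris-HCl (50 mM) with ovalbumin, ATP-MgCl2, DTT / Times: preincubation 30 min, reaction 25 min, room temperature / Technique: AMC fluorescence from Ub-AMC cleavage, excitation 355 nm, emission 460 nm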
Ecoli rRNA inh = reduced GFP signal of wild-type E. coli, primary screen, bacterial rRNA inhibitor project, GFP/RFP fluorescence, OD600, single point | AID 720706, 2013 | E. coli WT GFP vs humanized-ribosome RFP mutants, 24 h; stronger effect = lower value; DMSO median 0, no signal -100 | 350,000 tested, 1.6% active | GFP signal change (wild-type ribosome), % (no concentration beside the values);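 active = significant combined selectivity score with lowered wild-type GFP, culture density cut under 30%, mutant RFP and density less affected; inactive = any of these conditions unmet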; note: one replicate is shown; some compounds called inactive have numbers as strong as hits
FGF22 binding = binders of human FGF22 protein, primary screen, FGF22 synaptogenesis inhibitor project, biophysical, thermal shift, single point | Fibroblast growth factor 22 (Homo sapiens), Q9HCT0 | recombinant FGF22 thermal shift, SYPRO orange fluorescence; percent of sucrose octasulfate shift, DMSO zero | calls only at 9.99 µM | 340,000 tested, 1.5% active | AID 651658, 2012;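 active = melting point raised past a set limit in the mean and every replicate; three in four hits are not shown here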
Ecoli rRNA inh OD600 = recorded beside Ecoli rRNA inh, whose call it bears; OD600 change, %; measured here: OD600 growth;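 optical density of the mix in the first replicate; 0 = DMSO median and -100 = no signal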
Ecoli rRNA inh RFP = recorded beside Ecoli rRNA inh, whose call it bears; RFP signal change, %; measured here: RFP humanized mutant strains;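 first replicate; 0 = DMSO median and -100 = no signal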
An asterisk follows results filed as active; i = inactive; nt = not tested or not shown; & = joins results of further samples.

| compound | ALR H2O2 inh | Ecoli growth | B2AR ag | HNF4A DNA FP | UCH37 inh | Ecoli rRNA inh | Ecoli rRNA inh OD600 | Ecoli rRNA inh RFP | FGF22 binding |
| --- | --- | --- | --- | --- | --- | --- | --- | --- | --- |
| Cc1ccc(/C=N/NC(=O)c2nnn(-c3nonc3N)c2CNc2ccccc2)cc1 | 0 | nt | -5 | -1.1 | nt | 6 | 8 | 2.8 | i |
| CCCCC1C(=O)CC[C@H]2[C@@H]1CC(=O)[C@@H]2C/C=C\CCCC(=O)O (stereo partly drawn) | 58 | nt | -1 | -3.4 | 4.7 | nt | nt | nt | nt |
| Cn1c(SCC(=O)Nc2cccc(F)c2)nnc1-c1cc2ccccc2o1 | -4 | 0.79 | -3 | 6.9 | 0.5 | nt | nt | nt | nt |
| COC(=O)c1cnc(SC)nc1C | nt | 0.68 | 2 | -0.5 | -4.3 | nt | nt | nt | nt |
| NC(=O)Nc1ccc(C(=O)OCC(=O)Nc2cccc(S(=O)(=O)NC3=NCCCCC3)c2)cc1 | 0 | 0.65 | 12 | -3.0 | -3.2 | 7 | 6 | 1.6 | i |
| Oc1ccc(F)cc1-c1cc(-c2ccc3c(c2)OCCO3)n[nH]1 | nt | 0.67 | 17 | -0.1 | 1.6 | nt | nt | nt | nt |
| COc1ccc(Cl)cc1NC(=O)COC(=O)C1=NNC(=O)CC1 | -1 | 0.63 | 2 | 1.2 | 0.3 | 10 | 4 | -1.4 | i |
| O=C(Cn1nnc(-c2ccccc2)n1)N=Nc1c(O)[nH]c2ccccc12 | -1 | 0.73 | 3 | -4.3 | 2.6 | nt | nt | nt | nt |
| CCOC(=O)C1=NOC(CNC(=O)c2c(-c3ccccc3Cl)noc2C)C1 (stereo not drawn) | -2 | 0.72 | 21 | -0.8 | 8.2 | nt | nt | nt | nt |
| COc1ccc(-c2nnc(SCC(=O)NCC3CCCO3)n2C)cc1 (stereo not drawn) | 0 | 0.67 | -9 | -4.1 | 0.0 | 9 | 2 | -4.5 | nt |
| COc1cccc(N2CCN(c3ccc4nnc(CCC(=O)Nc5ncccc5C)n4n3)CC2)c1 | 99* | 0.68 | 8 | -2.3 | 5.4 | 2 | 2 | -1.8 | i |
| COC1CCN(C(=O)c2cc(COc3cc(C)ccc3C)on2)CC1 | nt | nt | nt | -1.3 | nt | 3 | -31 | -5.1 | i |
| Cc1ccc(/C=C/S(=O)(=O)NCCC(=O)NCc2ccccc2F)cc1 | -3 | 0.71 | -4 | 3.4 | -1.8 | 0 | 0 | 3.8 | i |
| O=C(COc1ccc(Cl)cc1)NCc1nnc(SCC(=O)Nc2ccc(F)cc2F)o1 | -4 | 0.72 | -3 | 0.1 | 1.4 | -6 | -1 | -1.7 | i |
| CCCCN1C(=O)C(=O)N(CC(=O)c2cc(C)n(C3CC3)c2C)C1=O | nt | 0.7 | 0 | -2.1 | 0.3 | 0 | 2 | 4.0 | i |
| COc1ccccc1NC(=O)Oc1ccc(NC(=O)c2ccco2)cc1 | 24 | 0.7 | 10 | 4.4 | 2.3 | nt | nt | nt | nt |
| COc1cc2c(cc1OC)C(c1ccccc1)N(C(=O)c1ccccc1)CC2 (stereo not drawn) | 12 | 0.67 | 9 | 0.9 | 4.1 | -28 | -40 | -0.5 | i |
| Cc1ccc(C(=O)N/C(=C/c2ccco2)C(=O)OCN2C(=O)c3ccccc3C2=O)cc1 | 27 | 0.68 | 3 | 3.5 | 4.6 | nt | nt | nt | nt |
| Cc1cc(C)n2nc(C(=O)N(C)c3c(N)n(Cc4ccccc4)c(=O)[nH]c3=O)nc2n1 | -1 | 0.72 | -7 | 1.6 | 2.3 | 6 | 10 | -3.2 | i |
| O=C(CN1CCN(c2ccccc2)CC1)Nc1ccccc1Sc1ccccc1 | 3 | 0.74 | -2 | -2.2 | 3.4 | nt | nt | nt | nt |
| O=C(CSCc1ccccc1)N1CCN(Cc2ccc3c(c2)OCO3)CC1 | -2 | 0.73 | -7 | 1.7 | 1.0 | nt | nt | nt | nt |
| Cc1cccc(OCCNc2cc(N3CCOCC3)ccc2[N+](=O)[O-])c1 | -5 | 0.7 | -4 | -1.1 | 6.8 | -12 | -1 | 3.9 | i |
| CC(C)NC(=O)Cn1c(=O)n(CC(=O)N2CCCCC2)c(=O)c2sccc21 | 5 | 0.71 | -8 | 3.0 | -2.1 | 2 | 8 | -1.1 | i |
| CC(=O)c1ccc(N(C(=O)Cn2nnc3ccccc32)C(C(=O)NC2CCCCC2)c2cn(C)nc2C)cc1 (stereo not drawn) | nt | 0.71 | 2 | 0.9 | 5.8 | nt | nt | nt | nt |
| N#Cc1sc2nc(-c3ccccc3)cc(C(F)(F)F)c2c1N | nt | 0.71 | 0 | 6.9 | -7.4 | 20 | 19 | 3.2 | i |

New compounds follow
| compound | ALR H2O2 inh | Ecoli growth | B2AR ag | HNF4A DNA FP | UCH37 inh | Ecoli rRNA inh | Ecoli rRNA inh OD600 | Ecoli rRNA inh RFP | FGF22 binding |
| --- | --- | --- | --- | --- | --- | --- | --- | --- | --- |
| CCC(O)(C#CCN1CCCCC1)CC | -2 | 0.71 | -6 | -3.1 | 1.6 | nt | nt | nt | i |
| CCC(=O)N1CCN(c2ccc(NC(=O)c3ccc([N+](=O)[O-])o3)cc2Cl)CC1 | nt | 0.65 | 24 | 0.2 | 4.7 | -3 | -5 | -3.9 | i |
| O=S(=O)(NC1CCCCC1)c1cccc(-c2nnc(-c3ccccc3)o2)c1 | -7 | 0.67 | 4 | 2.4 | 3.4 | nt | nt | nt | nt |
| CC1(C(=O)NCc2cccc(C(F)(F)F)c2)CCN1CCc1ccccc1 (stereo not drawn) | nt | nt | nt | -0.4 | nt | -62 | -78 | -22 | i |
| O=C(O)c1cccnc1SC1CC(=O)N(c2ccccc2)C1=O (stereo not drawn) | 15 | 0.65 | 8 | -1.5 | 0.9 | 6 | 5 | 13 | i |
| O=C(COc1ccc(Cl)cc1Cl)Nc1nnc(C2=COCCO2)o1 | 34 | 0.66 | -3 | 2.4 | 0.9 | -10 | -1 | -2.4 | i |
| Cc1ccc(NS(=O)(=O)c2ccc3c(c2)NC(=O)CO3)cc1 | -13 | 0.73 | 5 | 4.8 | 1.6 | -1 | -2 | -0.7 | i |
| Cc1cccnc1NC(=O)CCNC(=O)c1ccc(Cl)cc1 | -2 | 0.73 | 2 | -1.3 | 2.7 | 14 | 13 | -2.0 | i |
| COc1ccc(CNS(=O)(=O)c2ccc(C)cc2)cc1 | 1 | 0.69 | -2 | 0.0 | 5.3 | -6 | 2 | 3.0 | i |
| CC(=O)c1cccc(NC(=O)c2ccc(NC(=O)CCS(=O)(=O)c3cccs3)cc2)c1 | -7 | 0.67 | 3 | 0.8 | -0.2 | -1 | 4 | -1.1 | i |
| O=C(COc1ccc(S(=O)(=O)N2CCCCC2)cc1Cl)N1CCOCC1 | -3 | 0.69 | 6 | -1.5 | 2.5 | 3 | 0 | 0.9 | i |
| COc1ccccc1CC(=O)NCC(c1ccco1)N1CCCCC1 (stereo not drawn) | 1 | 0.62 | 18 | -1.2 | -6.1 | 12 | 11 | 6.1 | i |
| CN(C)/C=N/c1c(C(=O)NCc2ccccc2)nnn1Cc1ccccc1 | 22 | nt | 0 | -1.8 | nt | nt | nt | nt | nt |
| O=C(O)CSc1nnc(-c2ccc(Cl)cc2Cl)n1-c1ccc(Br)cc1 | 55 | nt | 1 | -2.5 | nt | -30* | -14* | 10* | i |
| Cc1ccc(C2NC(c3ccc(C)cc3)C(C)C(=NO)C2C)cc1 (stereo not drawn) | -4 | 0.68 | 7 | 1.7 | 3.2 | -20 | -12 | -4.4 | i |
| Cc1ccc(Cl)cc1N1CCN(S(C)(=O)=O)CC1 | 0 | 0.7 | -11 | -3.1 | 1.0 | -35* | -3.2* | -0.4* | i |
| COC(=O)c1ccccc1NC1CC(=O)N(c2c(C)cccc2C)C1=O (stereo not drawn) | -5 | 0.68 | 0 | 2.8 | -208 | nt | nt | nt | nt |
| CCn1c(SCC(=O)Nc2nc3ccccc3s2)nnc1-c1ccc(Br)cc1 | -2 | 0.69 | -4 | 16 | 0.1 | nt | nt | nt | nt |
| CN1CCC(N(C)S(=O)(=O)c2ccc(NC(=O)COc3cccc(C(F)(F)F)c3)cc2)CC1 | 0 | 0.67 | 6 | -9.1 | -0.3 | -10 | -6 | -2.0 | i |
| CCCNC(=O)C1(C)CCCN(C(=O)c2ccccc2OC)C1 (stereo not drawn) | nt | nt | nt | -0.4 | nt | 11 | 11 | 1.1 | i |
| CN(C(=O)CCc1nnc(-c2ccc(-c3ccccc3)cc2)o1)C1CCOCC1 | -15 | 0.71 | 1 | -0.2 | 2.6 | 10 | 9 | -1.8 | i |
| COc1ccc(-c2csc(NC(=O)CSc3ccc(Br)cc3)n2)c(OC)c1 | nt | 0.67 | -8 | -2.7 | 3.7 | -3 | -2 | 8.8 | i |
| COc1cccc(CC(=O)NCC2COc3ccccc3O2)c1OC (stereo not drawn) | -16 | 0.69 | 5 | 4.2 | 1.2 | -1&-11 | -1&-9 | -0.1&0.5 | nt |
| C=CCn1c(=O)c2ccccc2n2c(SCc3nnc(-c4ccccc4Br)o3)nnc12 | 1 | 0.7 | 1 | 3.1 | 0.6 | nt | nt | nt | nt |
| O=C(NC(NC1CCS(=O)(=O)C1)C(Cl)(Cl)Cl)c1ccc(Br)cc1 (stereo not drawn) | nt | 0.72 | 4 | 1.3 | 2.3 | nt | nt | nt | nt |

The list goes on.
| compound | ALR H2O2 inh | Ecoli growth | B2AR ag | HNF4A DNA FP | UCH37 inh | Ecoli rRNA inh | Ecoli rRNA inh OD600 | Ecoli rRNA inh RFP | FGF22 binding |
| --- | --- | --- | --- | --- | --- | --- | --- | --- | --- |
| O=C(OCc1nnc(-c2ccccc2Br)o1)c1ccco1 | 2 | 0.71 | 7 | 0.1 | 0.8 | 12 | 4 | 1.2 | i |
| O=C(NCCC(=O)N1CCc2ccccc21)c1ccccc1Cl | nt | 0.67 | 4 | 0.6 | 0.0 | 0 | 4 | 1.1 | i |
| CCOc1ccccc1N1CCN(CC(=O)Nc2ncc(C)s2)CC1 | 19 | 0.68 | 1 | 1.3 | 2.6 | 4 | -4 | 0.1 | i |
| O=c1c2ccccc2nc(-c2ccccc2)n1CCCn1ccnc1 | 3 | 0.72 | -8 | 1.6 | 2.6 | nt | nt | nt | nt |
| CCCc1c(C(=O)N/N=C/c2ccc(OC)c(OCc3ccccc3)c2)nnn1-c1nonc1N | 7 | nt | -1 | -3.5 | nt | 4 | -4 | -0.4 | i |
| CC1=CSC2=NC(=O)/C(=C/c3cccc(OC(=O)c4ccco4)c3)C(=N)N12 | nt | 0.7 | 15 | -1.1 | 3.3 | nt | nt | nt | nt |

2 entries from above, with values under each structure:
Every second line gives: ALR H2O2 inh	Ecoli growth	B2AR ag	HNF4A DNA FP	UCH37 inh	Ecoli rRNA inh	Ecoli rRNA inh OD600	Ecoli rRNA inh RFP	FGF22 binding
- CCCc1c(C(=O)N/N=C/c2ccc(OC)c(OCc3ccccc3)c2)nnn1-c1nonc1N
    7	nt	-1	-3.5	nt	4	-4	-0.4	i
- CC1=CSC2=NC(=O)/C(=C/c3cccc(OC(=O)c4ccco4)c3)C(=N)N12
    nt	0.7	15	-1.1	3.3	nt	nt	nt	nt

A portion of the library; rates above refer to the full screens.
